# HSV replic up: increases HSV replication in cells | HSV replication augmentation in cells, fold increase | maximum fold increase | hit rate 0.005% among 220,000 | AID 1956;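 active = peak rise of 1.5-fold or more in the series; inconclusive = self-fluorescent or not available for retest; tested in PC3 cells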;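 also: first round at 10 µM; read as green reporter fluorescence; hits show the peak of a series up to 25 µM; 1 = signal of infected wells without compound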
# Insulin prom inh: TRM-6 insulin promoter activity inhibition | TRM-6 cells (human fetal islet line), insulin promoter-eGFP reporter, imaging; reporter expression induced with tamoxifen | inhibition, % at 2 µM | hit rate 0.9% among 130,000;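 active = inhibition above the mean plus 3 SD, with well images judged a real hit on visual review, cut at about 60% in these data, passing the limit was not always enough; inconclusive = inhibition over the cutoff but images rejected on review; inactive = inhibition not above the cutoff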
# PKD1 inh: inhibitors of human PKD1 kinase; Q15139; PKD1 kinase fluorescence polarization assay; inhibition, %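 (about 10 µM by stock and volumes)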; hit rate 0.056% among 200,000; AID 797;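 active = inhibition of 50% or more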;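 also: controls were vehicle for no effect and a reference inhibitor for full effect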
# Target sequence (Q15139 whole entry, looked up): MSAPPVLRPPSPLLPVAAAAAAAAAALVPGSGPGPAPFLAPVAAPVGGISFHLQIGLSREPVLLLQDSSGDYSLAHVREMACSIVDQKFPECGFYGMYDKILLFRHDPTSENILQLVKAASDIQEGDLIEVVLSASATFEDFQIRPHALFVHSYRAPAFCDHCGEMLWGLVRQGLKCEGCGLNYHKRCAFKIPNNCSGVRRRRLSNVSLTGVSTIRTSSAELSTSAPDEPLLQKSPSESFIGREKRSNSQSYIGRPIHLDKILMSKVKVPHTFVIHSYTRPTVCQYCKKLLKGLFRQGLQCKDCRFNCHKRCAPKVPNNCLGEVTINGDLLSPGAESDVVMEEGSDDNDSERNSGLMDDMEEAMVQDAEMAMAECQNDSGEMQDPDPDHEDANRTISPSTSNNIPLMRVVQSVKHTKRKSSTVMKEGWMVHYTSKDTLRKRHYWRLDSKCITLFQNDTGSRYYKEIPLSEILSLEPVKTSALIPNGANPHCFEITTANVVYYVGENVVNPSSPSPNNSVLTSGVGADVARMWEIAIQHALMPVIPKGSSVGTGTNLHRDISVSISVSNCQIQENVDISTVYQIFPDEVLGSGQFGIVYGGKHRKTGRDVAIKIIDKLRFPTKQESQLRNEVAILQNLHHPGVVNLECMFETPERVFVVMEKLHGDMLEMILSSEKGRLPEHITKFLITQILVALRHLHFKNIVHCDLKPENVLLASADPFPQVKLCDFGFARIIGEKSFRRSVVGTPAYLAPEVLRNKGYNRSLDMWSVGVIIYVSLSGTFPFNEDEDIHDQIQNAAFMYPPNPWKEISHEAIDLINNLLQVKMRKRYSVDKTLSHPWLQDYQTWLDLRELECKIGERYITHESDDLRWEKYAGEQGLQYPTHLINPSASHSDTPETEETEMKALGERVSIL
# GALR2 agonist: activates the human galanin receptor 2; O43603; GALR2-expressing cells, agonist activation read-out; activation, %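 (tested at 5 µM)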; hit rate 0.48% among 140,000; AID 803;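 active = above mean plus 3 SD of all compounds, about 5% in these data, not always enough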;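 also: 0% = vehicle buffer wells and 100% = reference agonist at full effect; tested in CHO reporter cells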
# RGS16-Gao HTS: regulators of human RGS16-Galphao interaction; bead-based flow cytometry RGS16-Galphao binding, fluorescence; actives lie on both sides; binding response (% of control), % at 10 µM; hit rate 0.38% among 220,000; AID 1441;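 active = below 25% or above 175%, edge rows of some plates excepted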;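 also: Galphao activated by GDP with aluminum fluoride before binding; 100% = wells without compound and 0% = beads without RGS; some results beyond the cut were filed as inactive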
# Insulin prom inh cell count: second read-out of Insulin prom inh, no call of its own (marks repeat the call); normalized cell count, %; measured here: cell count, toxicity; reference of the scale not given here;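 cells exposed to compound for 48 h; stained nuclei by imaging scaled within each plate; lower means fewer cells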
# HSV replic up primary fold: recorded beside HSV replic up, whose call it bears; fold increase; compound at 10 µM; measured here: primary screen fold increase 10 uM; tested in PC3 cells;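 GFP signal in the first replicate; 1 = infected wells without compound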
# An asterisk follows results filed as active; i = inactive; ? = inconclusive; · = no result given.
no.	mol	HSV replic up	HSV replic up primary fold	Insulin prom inh	Insulin prom inh cell count	PKD1 inh	GALR2 agonist	RGS16-Gao HTS
1	CCOC(=O)c1ccc(Oc2nc(NC)nc(SC)n2)cc1	i	0.92	·	·	4.9	0.1	106.2
2	COC(=O)c1sc(NC(=S)NC(=O)c2ccccc2F)nc1C	i	0.96	21.4	71.5	0.3	·	97.8
3	COCCn1c(SCC(=O)Nc2cccc(OC)c2)nc2c(oc3ccccc32)c1=O	i	0.87	·	·	-6.7	·	101.2
4	CCCCCNC(=O)c1cc(S(=O)(=O)N2CCCC2)ccc1F	i	1.04	44.4	121.2	-0.7	-1.1	21.6*
5	CC(C)N1C(=O)CCC1C(=O)NCCc1ccc(Cl)cc1 (stereo unspecified)	·	·	15.0	89.9	0.2	0.1	59.3
6	Cc1cc(C)cc(NC(=S)N(Cc2ccc(Cl)cc2)Cc2ccc(C(=O)O)cc2)c1	i	1	·	·	-1.6	·	99.1
7	CC(=O)n1cc([C@H]2C=C(C(=O)N3CCN(Cc4ccc5c(c4)OCO5)CC3)O[C@@H](OCCCCO)C2)c2ccccc21	i	1	·	·	4.7	·	101.7
8	CC1CNCCN1S(=O)(=O)c1cccc2cnccc12 (stereo unspecified)	i	1.03	59.1	70.6	20.3	-1.8	100.2
9	Cc1ccc2c(c1)nnn2C1CCN(C(=O)NCc2ccccc2)CC1	i	0.98	25.0	135.4	4.5	·	102.2
10	COc1ccc(C)cc1NS(=O)(=O)c1ccc(Br)s1	i	0.7	35.7	102.6	-4.8	-2.2	96.7
11	Cc1cc2c(C)c(C)c(=O)[nH]c2cc1N	i	1.02	-28.6	134.5	-1.9	-0.9	99.8
12	COC(C[C@H](O)CC(=O)COCc1ccccc1)OC	i	0.68	·	·	·	·	109.9
13	O=C1C2C3c4ccccc4C(c4ccccc43)C2C(=O)N1c1nc(-c2ccccc2)cs1 (stereo unspecified)	i	0.9	8.3	100.6	-7.5	-1.6	78.9
14	Cc1ccc(-c2ncns2)cc1	i	0.9	·	·	·	·	98.2
15	CC(Sc1ccccc1)C(=O)NN=C1CCCC1 (stereo unspecified)	i	1.06	·	·	-7.7	·	117.2
16	CCOC(=O)CCC(=O)NNC(=O)COc1ccc(C(C)C)cc1Br	i	0.87	·	·	-0.7	·	103.5
17	CCCCOc1ccc(S(=O)(=O)n2c(C)nc3ccccc32)cc1	i	1.03	33.3	122.9	15.3	-0.4	12.1
18	CCOC(=O)Cc1ccc(NC(=O)c2ccc([N+](=O)[O-])cc2)cc1	i	0.98	·	·	2.7	·	106.5
19	O=C1c2sc3nc4ccccc4n3c2C(=O)N1c1ccccc1Cl	i	1.01	28.1	121.7	2.4	-2.1	86.3
20	COCCCNC(=O)c1cc(C(=O)c2c(-c3c(Cl)cccc3Cl)noc2C)c[nH]1	i	0.87	-13.0	94.2	3.7	-0.3	99.1
21	O=C(CSc1nnc(Cc2ccccc2)o1)c1ccccc1	i	0.89	·	·	-4.5	·	99.1
22	Cc1ccc(-c2nc3ccccc3[nH]2)cc1NC(=O)c1ccc2c(c1)OCO2	i	0.57	·	·	-7.1	-0.5	102.8
23	O=C(CN1CCC(Cc2ccccc2)CC1)N1CCc2ccccc2C1	i	0.99	·	·	-3.3	·	103.5
24	Cc1ccc(OCC(=O)NCc2ccccn2)cc1	i	0.89	-54.5	152.4	-18.0	-0.2	97.9

# In the list so far, 2 have two or more sulfur atoms.
no.	mol	HSV replic up	HSV replic up primary fold	Insulin prom inh	Insulin prom inh cell count	PKD1 inh	GALR2 agonist	RGS16-Gao HTS
2	COC(=O)c1sc(NC(=S)NC(=O)c2ccccc2F)nc1C	i	0.96	21.4	71.5	0.3	·	97.8
10	COc1ccc(C)cc1NS(=O)(=O)c1ccc(Br)s1	i	0.7	35.7	102.6	-4.8	-2.2	96.7

# The results go on:
no.	mol	HSV replic up	HSV replic up primary fold	Insulin prom inh	Insulin prom inh cell count	PKD1 inh	GALR2 agonist	RGS16-Gao HTS
25	COc1cccc(OC)c1OCCCc1c(C)n[nH]c1C	i	0.93	·	·	2.0	-2.5	106.6
26	CCC(CC)C(=O)Nc1cccc(S(=O)(=O)c2cccc(NC(=O)C(CC)CC)c2)c1	i	0.94	-22.2	109.4	-1.1	0.1	99.1
27	CN1CCN(C(=O)CN2C(=O)CC(C)(C)S(=O)(=O)c3ccccc32)CC1	i	0.96	20.7	95.3	3.9	-2.2	101.1
28	CC(=O)Nc1ccc(C(=O)n2cnc3cc(C)c(C)cc32)cc1	i	0.96	4.2	113.3	-4.7	-0.3	103.1
29	CC1(c2ccccc2)CC(C)(C)N(C(=O)c2cc([N+](=O)[O-])cc([N+](=O)[O-])c2)c2ccccc21 (stereo unspecified)	i	1.02	42.3	113.0	-6.5	-1.2	109.4
30	O=C(Nc1nnc(-c2ccccc2Cl)s1)C1CCN(S(=O)(=O)c2ccc(Cl)cc2)CC1	i	1.05	24.2	174.7	-7.8	0.2	101.3
31	COc1ccc(NC(=O)c2ccc(=O)oc2)cc1	·	·	-6.1	134.1	-14.0	-1.1	98.8
32	CCOC(=O)NC(c1cccc(Cl)c1)C1CCCCCC1=O (stereo unspecified)	i	0.963	-32.3	104.9	0.2	-0.7	79.5
33	O=C(Cc1ccccc1)NC1CCN(Cc2ccccc2)CC1	i	0.94	·	·	0.8	·	93.9
34	CC(=O)N1CCN(S(=O)(=O)c2ccc(Cl)cc2F)CC1	i	0.94	·	·	-0.4	·	101.8
35	Cn1c(=O)c(=O)n(C)c2cc(S(=O)(=O)N3CCN(Cc4ccccc4)CC3)ccc21	·	·	·	·	3.4	-1.7	98.6
36	O=C1CN(C(=O)CNC(=O)c2cccc(Cl)c2)c2ccccc2N1	i	0.89	21.4	60.6	4.9	·	93.9

# 2 compounds from above, showing only HSV replic up primary fold.
cpd | canonical_smiles | HSV replic up primary fold
29 | CC1(c2ccccc2)CC(C)(C)N(C(=O)c2cc([N+](=O)[O-])cc([N+](=O)[O-])c2)c2ccccc21 (stereo unspecified) | 1.02
30 | O=C(Nc1nnc(-c2ccccc2Cl)s1)C1CCN(S(=O)(=O)c2ccc(Cl)cc2)CC1 | 1.05

# Other records follow:
no.	mol	HSV replic up	HSV replic up primary fold	Insulin prom inh	Insulin prom inh cell count	PKD1 inh	GALR2 agonist	RGS16-Gao HTS
37	CCc1ccccc1NC(=S)N(CCN1CCOCC1)Cc1ccccc1F	i	0.98	·	·	-7.5	·	100.4
38	CC1(C)NC(=O)NC2(C)NC(=O)NC(C)(C)C12 (stereo unspecified)	i	0.963	·	·	-3.9	-1.8	101.3
39	CCN(CC)S(=O)(=O)c1ccc(C(=O)Nc2nnc(CSC)o2)cc1	i	0.88	·	·	-1.1	·	99.4
40	O=C(Nc1ccccc1)C(c1ccccc1)C1CCCC1 (stereo unspecified)	i	0.98	-42.9	121.5	7.0	0.0	111.4
41	CC(C)Cc1nc(N2CCC(C(N)=O)CC2)c2nnn(Cc3ccccc3)c2n1	i	0.98	9.1	61.0	10.4	-1.1	103.9
42	CCOC(=O)c1sc2nc(NC(=O)COc3ccccc3)sc2c1C	i	1	·	·	3.3	-1.3	66.8
43	Cn1cnc([N+](=O)[O-])c1C(=O)Nc1cccc([N+](=O)[O-])c1	i	0.89	·	·	-2.8	·	89.1
44	N#Cc1cc2c(=O)n3ccccc3nc2n(CC2CCCO2)c1=N (stereo unspecified)	·	·	-185.7	121.2	-9.7	2.5	·
45	O=C1C2CCCN2C(c2cccc(Br)c2)N1c1ccc(F)cc1 (stereo unspecified)	i	0.9	·	·	-2.6	-3.5	103.7
46	COC(=O)/C(C#N)=C/c1c(N2CCN(Cc3ccc4c(c3)OCO4)CC2)nc2c(C)cccn2c1=O	i	0.98	·	·	·	·	103.5
47	CCOC(=O)N1CCN(c2c(-c3ccc(C(C)C)cc3)c(=O)c2=O)CC1	i	0.92	·	·	0.8	-1.0	102.1
48	Cc1ccc(/C=N/Nc2nc3ccccc3[nH]2)s1	i	0.7	·	·	-0.7	-0.8	103.4
49	Cc1cccc(NC(NC(=O)Cc2ccccc2)C(Cl)(Cl)Cl)c1 (stereo unspecified)	i	1.05	·	·	-8.1	-1.4	100.5
50	C=CCn1c(SCC(=O)NNC(=O)Nc2ccc(C)cc2)nnc1-c1ccccc1	i	1.08	·	·	·	·	99.7
51	CCC(=O)Nc1ccc(Cl)c(NC(=O)c2ccc([N+](=O)[O-])cc2)c1	i	0.74	-44.8	99.8	1.0	-0.4	105.6
52	CCC(=O)c1ccc(OC(=O)c2ccc(Br)o2)cc1	i	0.92	5.4	112.7	-6.7	-0.6	·
53	O=C1N(Cc2cccnc2)C[C@@H]2C[C@@H](c3ccc4nonc4c3)N3CCC[C@@]123	i	0.98	-50.0	71.8	-1.1	·	107.4
54	COc1ccc(/C=N/NC(=O)Nc2nonc2N)cc1	i	0.82	33.3	88.3	0.0	-1.4	92.6
55	CC(=O)Nn1cnc2c(c1=O)C1(CCCC1)Cc1ccccc1-2	i	0.87	-471.4	42.4	-20.4	2.7	100.7
56	O=c1nc2sc3ccccc3n2c(=O)n1-c1cccc(Cl)c1	i	0.933	42.9	175.6	-7.6	-3.8	105.0
57	CCOC(=O)C1(CCCc2ccccc2)CCN(C(=O)C2=C(C)OCCO2)CC1	i	0.82	·	·	3.8	·	96.5
58	CCOC(=O)c1c(N)sc2c1CCSC2	i	1.04	-47.8	88.7	-0.4	-3.3	98.9
59	COc1ccc(NC(=S)NC(NC(=O)c2ccc(Cl)cc2Cl)C(Cl)(Cl)Cl)c([N+](=O)[O-])c1 (stereo unspecified)	i	0.73	-113.3	116.0	-4.3	-1.2	102.8
60	CCN1CCN(c2oc(COc3ccc(Cl)cc3)nc2C#N)CC1	i	1.01	·	·	·	·	108.0
61	Clc1ccc(-c2nnc3sc(Cc4cccs4)nn23)c(Cl)c1	i	0.89	·	·	7.3	-1.5	109.1
62	O=C(COC(=O)CNS(=O)(=O)c1ccc(F)c(F)c1F)Nc1ccc(OC(F)F)cc1	i	1.01	24.7	110.3	3.1	-1.0	99.0
63	CCOc1ccc(C(C)NC(=O)c2cccc(F)c2)cc1 (stereo unspecified)	i	1	-9.1	99.5	1.6	-0.9	109.6
64	O=C(NCCc1ccccc1)C1CCN(S(=O)(=O)N2CCCC2)CC1	i	1.08	·	·	-14.2	-1.4	108.2
65	c1ccc(-n2cccc2)c(N2CCCCC2)c1	i	0.98	·	·	·	·	96.9
66	CC(=O)c1cc(-c2ccccc2)[nH]c1N1CCCC1	?	·	0.0	129.7	2.3	-2.7	106.5
67	CCOc1cccc(C(=O)NNC(=O)CCC(=O)O)c1	i	1.01	-21.4	114.8	-5.0	-0.4	105.2
68	CCC(=O)N1CCc2cc(Br)cc(S(=O)(=O)CCC(=O)N(CC)CC)c21	i	0.91	-48.7	91.1	10.6	·	102.2
69	CC(C)CCN1CC(C(=O)N2CCN(c3ccc(F)cc3)CC2)CC1=O (stereo unspecified)	i	1	·	·	5.5	-0.2	94.2
70	CCCSc1nc(O)c(C2OC(=O)c3c2ccc(OC)c3OC)c(=O)n1C (stereo unspecified)	i	0.93	14.3	120.9	-3.6	0.1	98.7

# Looked up above:
# compound 70 in Insulin prom inh cell count → 120.9
# compound 64 in HSV replic up primary fold → 1.08
# compound 63 in Insulin prom inh cell count → 99.5
# compound 66 in RGS16-Gao HTS → 106.5
# compound 65 in HSV replic up primary fold → 0.98
# compound 61 in RGS16-Gao HTS → 109.1

# Shown as a hit in RGS16-Gao HTS (from the list above):
No.	canonical_smiles	HSV replic up	HSV replic up primary fold	PKD1 inh	GALR2 agonist	RGS16-Gao HTS
4	CCCCCNC(=O)c1cc(S(=O)(=O)N2CCCC2)ccc1F	i	1.04	-0.7	-1.1	21.6*
